AID923: qHTS Assay for Allosteric/Competitive Inhibitors of Caspase-1: Spectroscopic Profiling in AFC Spectral Region | 1.1% of 75,000 active | Potency, µM (series often up to 57.5 µM), for the others: top-dose fluorescence increase, most hits filed as activators | compound fluorescence, AFC spectral region (405/520 nm); almost no hit is shown here | AID 923, 2007; active means well fitted activation curve with a large enough effect; inconclusive means small, poorly fitted or top-dose-only effect;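 further: potency means the concentration at half of the fitted maximal effect; 0% is about no effect; scaled to a free AFC standard on each plate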
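Baseline compound fluorescence (AFC region, 405 nm ex/520 nm em) taken from the intercept of kinetic reads with 50 nM caspase-1 and 5 uM Ac-WEHD-AFC; normalized to an on-plate AFC standard curve; compounds titrated up to 57 uM.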
Resorufin fluor: compound fluoresces in the resorufin spectral region. Compound fluorescence, resorufin region 547/598 nm, buffer; hits give high values. max dye-equivalent concentration, M. 0.04% of 59,000 active. AID 588; active = above 10 nM dye equivalent; inconclusive = 1 to 10 nM; inactive = 1 nM or less; a few of its hits are not listed in these tables; further: highest value over a series up to 38 µM
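Compounds in 100 mM Tris buffer, pH 8.0, incubated 15 min at room temperature, then read with 547 nm excitation and 598 nm emission filters. Fluorescence was converted to dye-equivalent concentration using an on-plate six-point resorufin standard curve.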
TSHR agonist: TSH receptor (human) agonism. 0.48% of 73,000 active. HEK293-CNG-TSHR cells (CNG channel as cAMP sensor), membrane potential dye, cAMP. AID 926. P16473. Potency, µM (highest dose often 57.1 µM), without a hit: top-dose activation, hits mostly activators; active = well fitted activation curve of enough size with the parental cells flat; inconclusive = any curve in the parental cells; inactive = parental cells flat and receptor cells flat or falling; further: potency means the concentration at half of the fitted maximal effect; % of control where 0% means no effect; weak receptor curves with flat parental cells got no call and are not listed
Target sequence (P16473 whole entry, looked up): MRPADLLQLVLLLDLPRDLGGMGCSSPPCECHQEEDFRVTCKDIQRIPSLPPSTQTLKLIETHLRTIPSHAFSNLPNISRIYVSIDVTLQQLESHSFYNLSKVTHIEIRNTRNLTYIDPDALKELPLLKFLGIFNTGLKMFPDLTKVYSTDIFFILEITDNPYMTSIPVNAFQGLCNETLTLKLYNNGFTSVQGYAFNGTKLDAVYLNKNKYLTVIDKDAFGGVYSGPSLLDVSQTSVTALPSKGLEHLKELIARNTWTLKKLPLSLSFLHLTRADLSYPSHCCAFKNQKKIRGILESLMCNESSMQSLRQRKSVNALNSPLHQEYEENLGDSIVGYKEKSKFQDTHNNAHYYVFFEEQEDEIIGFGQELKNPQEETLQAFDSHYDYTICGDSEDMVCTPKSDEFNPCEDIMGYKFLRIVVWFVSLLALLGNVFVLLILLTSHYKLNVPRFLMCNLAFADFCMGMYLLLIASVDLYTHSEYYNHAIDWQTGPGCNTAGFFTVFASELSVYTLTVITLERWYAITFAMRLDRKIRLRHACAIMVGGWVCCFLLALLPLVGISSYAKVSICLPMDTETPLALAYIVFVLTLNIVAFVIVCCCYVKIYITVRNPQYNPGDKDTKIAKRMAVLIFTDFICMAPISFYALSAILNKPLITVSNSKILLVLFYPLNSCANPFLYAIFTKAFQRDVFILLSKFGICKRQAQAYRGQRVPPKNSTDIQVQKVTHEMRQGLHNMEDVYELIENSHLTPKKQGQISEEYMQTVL
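HEK 293 cells stably expressing TSHR and a cAMP-gated CNG channel; parental CNG-only cells as counterscreen. Cells preloaded 60 min with membrane potential dye plus 100 uM RO 20-1724, then compound 30 min; fluorescence read at 590 nm.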
A647 fluor: A647 region autofluorescence; Compound fluorescence, A647 channel (570/671 nm), Tris buffer; max dye-equivalent concentration, M; 59,000 tested, under 10 active; active means above 1 µM dye equivalent; inconclusive means 0.1 to 1 µM; inactive means 0.1 µM or less;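 further: values scaled relative to a standard on each plate; highest value over a series up to 38 µM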
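Compounds pinned into 100 mM Tris pH 8.0, 15 min at room temperature, then read with 570 nm excitation/671 nm emission filters. Fluorescence normalized to an on-plate six-point Alexa 647 standard curve, giving dye-equivalent concentration per compound concentration.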
A488 fluor: compound fluoresces in the A488 spectral region | compound autofluorescence, A488 spectral region, dye equivalency; hits give high values | max dye equivalency, M | 0.1% of 59,000 active | AID 591; active = above 10 nM dye equivalent; inconclusive = 1 to 10 nM; inactive = 1 nM or less; about half of its hits are not listed in these tables;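 further: highest value over a series up to 38 µM; compound alone in buffer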
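Compounds pin-transferred into 100 mM Tris buffer, pH 8.0, incubated 15 min at room temperature, then imaged with 480 nm excitation/540 nm emission filters. Fluorescence converted to Alexa 488 dye-equivalent concentration via an on-plate six-point A488 standard curve.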
Starred values were filed as active, the others as inactive; i = inactive; ? = inconclusive; . = not tested or not shown; [ ] = remark or other dose.

smiles	AID923	Resorufin fluor	TSHR agonist	A647 fluor	A488 fluor
Nc1c2c(nc3ccn(-c4ccccc4)c(=O)c13)CCCCC2	1.2%	i	-4%	4.4e-09	i
COc1ccc(S(=O)(=O)N2CCN(Cc3c[nH]c4ccccc34)CC2)cc1	4.1%	.	0%	.	.
Cn1c(=O)n(C)c2cc(C(=O)c3ccccc3)ccc21	.	i	.	7.9e-08	i
COc1ccccc1-c1n[nH]c(=S)n1-c1ccccc1	0.0%	.	22%	.	.
COc1ccccc1N1C(=O)C2ON(c3ccccc3)C(c3ccc(N(C)C)cc3)C2C1=O (stereo not drawn)	.	i	.	1e-09	i
Cc1nc(/N=C(\N)Nc2ccccc2)nc2ccccc12	.	i	.	3.6e-08	i
Cc1cc(C)nc(Sc2c(C)n[nH]c2C)n1	-0.6%	i	?	9.2e-09	i
Cc1ccc(N2C(=O)CC(N3CCN(C4CCc5ccccc5C4)CC3)C2=O)cc1 (stereo not drawn)	1.2%	.	5%	.	.
O=C(O)c1ccccc1C1=Nc2ccc(O)cc2Oc2cc(O)ccc21	3.2%	?	-1%	3.6e-08	?
CCCOc1ccc(N2CC(C(=O)NC(C)C)CC2=O)cc1 (stereo not drawn)	4.2%	i	3%	1e-09	i
Cc1ccc2nc(-c3ccc(NC(=O)c4ccco4)cc3)[nH]c2c1	3.9%	i	0%	1e-09	i
COC(C(=O)Nc1cccc(F)c1)c1ccccc1 (stereo not drawn)	1.3%	.	2%	.	.
COCCNC(=O)C(c1cccc(OC)c1)N(Cc1cccs1)C(=O)Cn1nnc2ccccc21 (stereo not drawn)	-1.0%	i	12%	3.3e-09	i
CC/C(=N\O)C(C)(C)/[N+]([O-])=C/c1ccc(Br)cc1	1.3%	.	2%	.	.
CCCCN(C(=O)Cn1nnc2ccccc21)C(C(=O)NCCOC)c1ccc(OC)cc1OC (stereo not drawn)	0.7%	i	15%	1.4e-08	i
CCCCC[C@H](O)/C=C/[C@@H]1[C@@H](CCCCCCC(=O)O)[C@@H](O)C[C@H]1O	.	i	.	1e-09	i
COc1cccc(-c2nc(N3CC(C)CC(C)C3)c3ccccc3n2)c1O (stereo not drawn)	.	i	.	3.1e-09	i
CC(=O)c1cc(-c2ccc(F)cc2)n(CC(=O)NCc2cccs2)c1C	1.1%	i	?	1e-09	i
CC(=O)Nc1ccc(SCC(=O)OCC(=O)NC(=O)NCc2ccco2)cc1	-1.2%	i	6%	4e-08	i
CCCn1c(-c2ccc(F)cc2)nc2c(NCCN(C)C)nc(C)nc21	-1.1%	.	?	.	.
O=[n+]1cc(-c2ccccc2)n([O-])c2c1CCC2	-2.2%	i	4%	3.8e-08	i
CC(=O)Nc1nonc1NC(C)=O	-0.3%	i	1%	1e-09	i
O=C(O)c1cc(C(=O)O)cc(N2C(=O)c3ccccc3C2=O)c1	0.4%[11.5 µM]	i	-1%[11.4 µM]	1e-09	i
CCc1ccc2oc(-c3cc(N)cc(C)c3O)nc2c1	2.1%	i	-39%[inhibitor]	1e-09	i
COc1ccccc1C(=O)OCn1nnc2ccccc2c1=O	2.6%	.	2%	.	.
CC(C)c1nc(=S)n(-c2ccccc2)[nH]1	-0.8%	i	1%	1.9e-09	i
COc1ccc(CNc2nc3ccccc3n2CCN2CCCCC2)c(OC)c1	2.7%	i	0%	7.2e-09	i
N#Cc1ccc(CN2CCCC3(CCN(C(=O)c4ccncc4)CC3)C2)cc1	-0.5%	i	-4%	1e-09	i
CCCc1nc(SCC(=O)N2CCCC2)c2ccccc2n1	0.0%	i	6%	1.7e-09	i
O=C(Nc1ccc2c(c1)oc1ccccc12)C1CC1	1.2%	i	-7%	1.2e-08	i
COc1ccc(C[C@@H]2C(=O)N[C@H](C)C(=O)N(C)[C@@H]3Cc4ccc(cc4)Oc4cc(ccc4O)C[C@H](C(=O)N[C@@H](C)C(=O)N[C@H](C)C(=O)N2C)N(C)C3=O)cc1	-2.3%[11.5 µM]	i	21%[11.4 µM]	1.4e-08	i
CCn1c(=NC(=O)CSC(C)=O)sc2ccccc21	-0.8%	i	-32%[inhibitor]	2.1e-08	i
CN(c1ccccc1C(N)=O)S(=O)(=O)c1ccccc1	1.2%	i	7%	1.1e-09	i
Cc1cc(Nc2ccccc2C(=O)O)nc2nc3ccccc3c(=O)n12	-0.4%	i	-1%	1e-09	i
CN(C)c1ccc(/C=N\NC(=O)c2cnc3ccccc3c2)cc1	0.5%[11.5 µM]	i	-7%[11.4 µM]	5.8e-09	i
C=C1CSc2nc(=O)c3c(C)c(C)sc3n21	1.7%	i	-25%	4.6e-09	i
Cc1cc(C)c(C(=O)CN2C(=O)CCC2=O)cc1C	-1.1%	i	3%	1e-09	i
O=S(=O)(c1cccc(C(F)(F)F)c1)N1CCC(O)(c2cccnc2)CC1	1.4%	i	-4%	1e-09	i
CC(=O)N(CN1C(=O)c2ccccc2C1=O)c1cccc(C)c1	-0.2%	i	1%	1.4e-08	i
CC(=O)c1ccc(NC(=O)N2CCN(c3cccc(Cl)c3)CC2)cc1	-0.2%	i	5%	2.3e-09	i
CN1CCCN(C(=O)c2cc(=O)[nH]c3ccccc23)c2nc3ccccc3nc21	5.7%	i	?	9.4e-09	i
CN1CCN(C2=C(Cl)C(=O)N(c3ccc(Cl)c(Cl)c3)C2=O)CC1	-0.7%	.	-3%	.	.
CCOC(=O)c1c(-c2ccc(OC)cc2)nc2nonc2c1N	-0.5%	i	12%	5.6e-09	i
CCOC(=O)N1CCN(c2nc(C)cc(C(F)(F)F)n2)CC1	-0.3%	i	5%	1e-09	i
CCOC(=O)c1c(C)[nH]c(C(=O)COC(=O)c2cn(CC)c3nc(C)ccc3c2=O)c1C	-0.8%	i	4%	1e-09	i
CN1C(=O)N(C)C2CC1N(C)C(=O)N2C	1.1%	i	-1%	1.9e-09	i
Cc1ccc(OCCn2c(C)c(/C=N/n3cnnc3)c3ccccc32)cc1	-0.1%	.	13%	.	.
CCC(C)c1ccc(O)c(N)c1 (stereo not drawn)	0.0%	i	-4%	1e-08	i
COc1ccc(OC)c(C(c2nnnn2C(C)(C)C)N2CCc3ccccc3C2)c1 (stereo not drawn)	0.1%	i	?	3.1e-08	i
Cc1c(N2C(=O)CSC23C(=O)Nc2ccccc23)c(=O)n(-c2ccccc2)n1C (stereo not drawn)	-0.8%	.	2%	.	.

Next results:
smiles	AID923	Resorufin fluor	TSHR agonist	A647 fluor	A488 fluor
CO/N=C(\C)CCN1CCCCc2nc(C)c(C)cc21	0.3%[11.5 µM]	.	1%[11.4 µM]	.	.
NC12CC3CC(C1)CC(O)(C3)C2	-1.0%	i	3%	2e-08	i
CC(=O)Nc1ccccc1NC(=O)C(F)(F)F	2.6%	.	-12%	.	.
Nc1nc2nc3c(nc2c(=O)[nH]1)CN(c1ccc(C(=O)O)cc1)C3=O	1.7%[11.5 µM]	i	5%[11.4 µM]	4.7e-09	i
O=C(CCCCn1c(=O)c2ccccc2n(CC(=O)Nc2cccc(F)c2)c1=O)NCc1ccco1	1.7%	i	14%[11.4 µM]	1e-09	i
COc1cc(CN2CCN(c3ccccc3F)CC2)cc(OC)c1O	0.9%	i	7%	1e-09	i
COC(=O)C(/C=C/C(C)Cc1cc(Br)cc(OCc2ccccc2)c1OC)OCc1ccccc1 (stereo not drawn)	-3.1%[11.5 µM]	.	7%[11.4 µM]	.	.
O=C(O)CC(CC(=O)O)C(=O)O	-1.1%[11.5 µM]	i	0%[11.4 µM]	4.5e-08	i
CC(C)CN(CC(C)C)c1nc(N)c(C#N)c(CC#N)c1C#N	1.0%	i	?	7e-09	i
CCOc1ccc(CCNC(=O)C(CC)n2nc(C)n3c(cc4sccc43)c2=O)cc1OCC (stereo not drawn)	-0.5%	i	?	4.6e-08	i
O=C(CSc1nnc(-c2cccnc2)n1Cc1ccco1)c1ccc(Cl)c(Cl)c1	-0.4%	i	?	1.4e-08	i
C[C@H](NCCN(C)C)[C@@H]1CCC2C3CCc4cc(O)ccc4[C@H]3CCC21C (stereo partly drawn)	1.2%[11.5 µM]	i	8%[11.4 µM]	1e-09	i
Cc1nc2ccc(NC(=O)NCc3ccco3)cc2s1	-0.7%	i	.	1.9e-08	i
O=C(NCc1ccco1)C1CCN(S(=O)(=O)c2ccc(-n3cnnn3)cc2)CC1	-5.1%	i	-3%	1e-09	i
O=C(NCc1ccncc1)c1c(F)c(F)c(F)c(F)c1F	0.8%	i	3%	1e-09	i
CCOC(=O)Cc1nnc2c(Nc3ccc(Cl)cc3)nc3nonc3n12	4.6%	i	?	6.3e-09	i
O=C(Cn1cnc2c(nnn2Cc2ccccc2)c1=O)c1ccccc1	0.2%	.	16%	.	.
O=C(c1ccco1)N1CCN(c2nc(C3CC3)nc3sc4c(c23)CCCC4)CC1	1.8%	i	?	2.2e-09	i
CN(C)CCNC(=O)c1cc2c(=O)n(C)c3ccccc3c2n1C	-2.2%	.	16%	.	.
Cc1ccc(C(=O)CSc2n[nH]c(C)n2)cc1	0.5%	.	?	.	.
O=C(NCC(c1cccnc1)N1CCOCC1)c1cccc(Cl)c1 (stereo not drawn)	0.5%	i	4%	1.4e-08	i
O=C(O)[C@@H]1CCN(Cc2oc(CO)cc(=O)c2O)C1	1.0%[11.5 µM]	i	6%[11.4 µM]	1e-09	i
Cc1nn(C)c(C)c1NS(=O)(=O)c1ccccc1	2.5%	.	9%	.	.
COc1ccc2c(c1)c1c3n2CCN(C)C3=NCC1	3.1%	i	-2%	1e-09	i
CCNC(=O)CC1C(=O)N(c2ccc(F)cc2)C(=O)N1Cc1ccccn1 (stereo not drawn)	-0.4%	i	-1%	1e-09	i

2 successive entries from above, for reference:
smiles	AID923	Resorufin fluor	TSHR agonist	A647 fluor	A488 fluor
CO/N=C(\C)CCN1CCCCc2nc(C)c(C)cc21	0.3%[11.5 µM]	.	1%[11.4 µM]	.	.
NC12CC3CC(C1)CC(O)(C3)C2	-1.0%	i	3%	2e-08	i

Other entries follow.
smiles	AID923	Resorufin fluor	TSHR agonist	A647 fluor	A488 fluor
Cc1cc(NC(=O)COC(=O)C(Cc2ccccc2)NC(=O)c2ccco2)no1 (stereo not drawn)	-0.8%	i	15%	6.5e-09	i
CN1C(=O)CC(c2ccco2)Sc2ccccc21 (stereo not drawn)	-0.9%	.	6%	.	.
O=C(O)CCc1ccc(-c2ccccc2)o1	-0.2%	i	6%	8.1e-09	i
NC(=O)C1CCCN(C(=O)c2ccc(Cl)cc2)C1 (stereo not drawn)	-2.7%	i	0%	1e-09	i
Nc1ccccc1NC(=O)c1ccccc1	4.1%	i	-5%	1.7e-09	i
C[C@@H]1C=CCC(=O)OC[C@H](C)C(=O)OC[C@H]2O[C@H]1C=C[C@H]2O	-2.7%[11.5 µM]	.	1%[11.4 µM]	.	.

Bioassay records (PubChem)

These rows are one share of the data; rates above refer to the full screens.
